Source: PubChem
B2AR ag – beta2AR agonists driving receptor internalization, primary screen, cell-based, FAP fluorogen, flow cytometry. 340,000 tested, 0.43% active. response, % (no concentration beside the values). Beta-2 adrenergic receptor (Homo sapiens), P07550. Am2.2-beta2AR cells; reference of the scale not given here;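 active = response above a set limit, near 3 SD of response in nonfluorescent compounds, cut at about 42% in these data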;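 note: stock transfer was 100 nL into about 11 µL; a reference agonist was the positive control; negative values mostly stem from fluorescent compounds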
Target sequence (P07550 whole entry, looked up): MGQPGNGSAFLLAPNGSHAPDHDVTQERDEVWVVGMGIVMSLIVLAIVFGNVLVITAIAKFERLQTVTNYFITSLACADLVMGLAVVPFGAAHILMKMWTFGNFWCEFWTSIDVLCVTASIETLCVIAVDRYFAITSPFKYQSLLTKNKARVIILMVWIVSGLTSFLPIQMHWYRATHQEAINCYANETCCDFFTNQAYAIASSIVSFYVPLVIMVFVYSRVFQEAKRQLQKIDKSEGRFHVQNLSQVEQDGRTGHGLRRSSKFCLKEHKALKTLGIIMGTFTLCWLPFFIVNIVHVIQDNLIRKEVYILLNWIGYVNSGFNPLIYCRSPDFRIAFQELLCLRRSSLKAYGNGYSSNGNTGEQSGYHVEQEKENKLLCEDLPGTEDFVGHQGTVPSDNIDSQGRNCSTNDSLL
Bfl-1 A1 inh – caspase 3/7 activation in MEF A1-2A-BIM cells, primary screen, A1 inhibitor project, cell-based, luminescence, HTS; Caspase-Glo 3/7 luminescence, 3 h; percent of clofoctol response, vehicle zero; caspase activation, % (test concentration not listed); 330,000 tested, 0.066% active; AID 2462, 2010;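 active = over half of replicate activation scores above 10%, or exactly half above 10 with the replicate mean above 10; inconclusive = replicate mean below 10 yet half the replicates above 10; inactive = over half of replicates below 10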;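 note: wells of about 30 µL received 50 nL stock; many hits fall short of the cut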
Vif TR-FRET – inhibitors of Vif binding to APOBEC3G peptide, primary screen, biochemical, TR-FRET, GST-Vif 1-94, biotin-A3G peptide, dose response retest (AID 1117319) | 260,000 tested, 0.57% active | one-dose inhibition, %; IC50 in µM for titrated hits | TR-FRET GST-Vif / biotin-A3G peptide binding; higher % means a stronger effect; test concentration not given here; strong numbers were not always called active | Virion infectivity factor (Human immunodeficiency virus type 1 group M subtype B (isolate …;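 active = above the screen mean plus three standard deviations and confirmed in dose response; inconclusive = results disagree or hit not tested in dose response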;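 note: Vif residues 1-94 fused to GST binding biotinylated APOBEC3G peptide 110-148; 0% = full assay without inhibitor and 100% = GST in place of GST-Vif; retest series ran down from 100 µM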
UCH37 inh – inhibitors of human UCH37 deubiquitinase, primary screen, biochemical, Ub-AMC cleavage, fluorescence; 330,000 tested, 0.33% active; AID 588478, 2011; Ubiquitin carboxyl-terminal hydrolase isozyme L5 (Homo sapiens), Q9Y5K5; purified proteasome/UCH37; inhibition, % (concentration not given with the values);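 active = mean of two replicates above 20%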;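 note: 0% = compound-free wells with enzyme and 100% = wells lacking proteasome; stock transfer was 100 nL into about 20 µL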
Target sequence (Q9Y5K5 whole entry, looked up): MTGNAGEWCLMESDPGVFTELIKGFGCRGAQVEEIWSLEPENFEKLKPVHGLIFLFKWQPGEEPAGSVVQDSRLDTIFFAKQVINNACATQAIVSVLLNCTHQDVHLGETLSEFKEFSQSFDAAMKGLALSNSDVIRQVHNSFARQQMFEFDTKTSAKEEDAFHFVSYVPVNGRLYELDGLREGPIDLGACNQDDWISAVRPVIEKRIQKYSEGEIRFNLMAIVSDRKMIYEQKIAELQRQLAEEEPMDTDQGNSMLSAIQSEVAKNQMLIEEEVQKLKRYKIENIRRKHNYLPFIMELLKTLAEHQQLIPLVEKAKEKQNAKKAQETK
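Assay system: Proteasome-bound UCH37. Buffer or medium: pH 7.4 Tris-HCl (50 mM) with ovalbumin, ATP-MgCl2, DTT. Incubation: 30 min preincubation with enzyme, 25 min cleavage at room temperature. Measured by: fluorescence, ex 355 nm, em 460 nm. Read-out basis: percent inhibition. Control set: wells without proteasome as full block, compound-free enzyme plus substrate as uninhibited.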
E coli growth – E. coli growth inhibition, primary screen, OD600. AID 1053175, 2014. OD600 absorbance (concentration not given with the values). 330,000 tested, 0.21% active. Escherichia coli growth, 23 h; stronger effect = lower value;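 active = OD600 absorbance below the run mean of sample wells minus 3.6 SD, in any replicate, cut at about 0.56 in these data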;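 note: stock transfer was 300 nL into about 60 µL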
LANA-H2B inh – blockers of LANA interaction with H2A/H2B – biochemical, FP readout, HTS, primary screen; cell-free LANA-H2A/H2B peptide, fluorescence polarization; Protein LANA1 (Human herpesvirus 8 type P (isolate GK18)), Q9QR71; inhibition, % (no concentration beside the values); 320,000 tested, 0.6% active; AID 2629, 2010; in the data active = inhibition mostly above about 10%, no sharp cut-off; inactive = mostly below about 6.7%;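 note: stock transfer was 7.5 nL into about 10 µL; 0% = median of vehicle wells and 100% = median of positive control wells; one replicate is shown; the record names a cut of 25% in any replicate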
HNF4A DNA FP – change in binding of human HNF4A to DNA, primary screen, biochemical, fluorescence polarization, FITC-DNA; Hepatocyte nuclear factor 4-alpha (Homo sapiens), P41235; 1 h; activity change, % at 10 µM; 360,000 tested, 0.3% active; AID 1224865, 2016; in the data active = activity change above about 30%, passing the limit was not always enough;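 note: controls were the assay level and a saturating level of protein; the project sought stronger binding though the title names inhibitors; some compounds called inactive have numbers as strong as hits; positive values seem to mean higher polarization but the record does not say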
Starred values were filed as active, the others as inactive; ? = inconclusive; . = no result given.

SMILES | B2AR ag | Bfl-1 A1 inh | Vif TR-FRET | UCH37 inh | E coli growth | LANA-H2B inh | HNF4A DNA FP
O=[N+]([O-])c1ccc(NCc2ccncc2)cc1 | -1.1 | -0.1 | -4.6% | 6.2 | 0.681 | 5.4 | 0.7
Cc1cccc2cc(CN(CCN3CCCC3)C(=O)NC3CCCCC3)c(=O)[nH]c12 | -4.8 | -0.3 | 22.0% | -3.1 | 0.747 | 3.2 | 3.4
O=[N+]([O-])c1c(O)c(Cl)cc(Cl)c1Cl (tested in a mixture with another compound) | -2.5 | . | -1.7% | 3.2 | 0.552 | . | -1.7
CCCCCCCNC(=O)CN1C(=O)CSc2ccc(S(=O)(=O)N3CCOCC3)cc21 | -0.8 | -0.9 | -6.8% | 0.1 | 0.673 | -2.4 | 4.4
NS(=O)(=O)c1cccc(NC(=O)COC(=O)C2CCCCC2)c1 | -8.1 | 0.4 | 19.5% | 3.8 | 0.664 | -3.0 | -3.0
COc1cc(=O)[nH]c(SC(C)C(=O)Nc2cc(C)on2)n1 (stereo not drawn) | 7.4 | -0.6 | . | 1.6 | 0.698 | 1.0 | -1.9
COc1cc(NC(=O)COC(=O)/C=C/c2ccc(Cl)cc2Cl)cc(OC)c1 | 2.2 | 0.9 | -8.4% | 3.2 | 0.756 | 2.5 | -0.2
CN(CC(=O)Nc1ccc(S(=O)(=O)N2CCCC2)cc1)Cc1c(F)cccc1Cl | 4.8 | 1.1 | 19.6% | 3.4 | 0.699 | -1.0 | 3.7
CC1CN(S(=O)(=O)c2cccc(C(=O)OCCOc3ccccc3)c2)CC(C)O1 (stereo not drawn) | -1.2 | -0.3 | 10.2% | 2.5 | 0.686 | 1.8 | -2.0
CCCCn1c(N)c(N(CC(C)C)C(=O)c2ccco2)c(=O)[nH]c1=O | -1.6 | -0.5 | 1.8% | -0.9 | 0.63 | -0.2 | 5.2
COCCOC(=O)c1c(C)n(C)c2ccc(OC(=O)c3ccccc3F)cc12 | 11.8 | -0.4 | -11.6% | 0.7 | 0.67 | 0.4 | -4.2
Cc1ccc(NC(=O)COC(=O)Cn2cnc3c2c(=O)n(C)c(=O)n3C)cc1F | -4.3 | . | -0.9% | 3.0 | 0.698 | . | -4.0
N#CCSc1nc2cc(C(=O)N3CCC(C(N)=O)CC3)ccc2c2nc3ccccc3n12 | -5.3 | 0.0 | -7.6% | -59.2 | 0.669 | -3.0 | -0.8
CCNC(=O)c1ccccc1NC(=O)c1cccc(S(=O)(=O)N2CCC(C)CC2)c1 | -1.2 | -1.1 | 8.9% | 2.4 | 0.697 | -1.2 | -2.2
Cc1csc2nc(CCNS(=O)(=O)c3cccs3)cn12 | -2.0 | 0.2 | -3.1% | 0.7 | 0.675 | 13.2 | -0.1
C#CCNC(=O)C1=C[C@H](C(C)(C)C)C[C@H](OCCCCO)O1 | 0.4 | 0.1 | . | -12.2 | . | 1.1 | 4.2
O=C(CN1C(=O)CSc2ccc(S(=O)(=O)N3CCOCC3)cc21)NCc1ccc(F)cc1 | -2.6 | 1.6 | . | 3.6 | 0.657 | -1.8 | -1.2
Cc1[nH]c(=O)c(C#N)cc1-c1csc(-c2ccccc2)n1 | 7.1 | -0.1 | -34.8% | -5.0 | 0.71 | -2.5 | -0.1
COc1cc(/C=C/C(=O)Nc2ccncc2)cc(OC)c1OC | -5.0 | -0.4 | -5.0% | -160.0 | 0.679 | -4.2 | -2.4
Fc1cccc(NC(=S)NC2CCCCCCC2)c1 | -2.0 | -1.6 | -2.4% | 1.6 | 0.666 | -4.8 | 5.1
Cc1ccc2nc(NC(=O)CCn3cccc3)sc2c1 | -0.1 | -1.5 | -11.4% | 2.9 | 0.701 | -1.9 | 3.2
N#Cc1ccc(C=NN2CCCCCC2)cc1 | -3.5 | . | 5.5% | 3.9 | 0.649 | . | -0.4
CCCC(C)C(=O)OCC(=O)Nc1ccc(Br)cc1 (stereo not drawn) | . | 0.2 | 2.4% | 0.4 | 0.628 | 0.4 | .
CN=CC1=C(O)CC(C)(C)CC1=O | -8.4 | 0.0 | -3.5% | 2.0 | 0.671 | -3.1 | 3.2
Cc1ccccc1NC(=O)CC(=O)Nc1ccccc1C | 6.8 | 0.3 | -2.7% | 5.4 | 0.675 | -2.8 | 6.7
COc1ccc(NC(=O)C2CCCN(S(=O)(=O)c3cnc[nH]3)C2)cc1 (stereo not drawn) | -4.0 | 0.4 | 25.6% | 6.5 | 0.754 | 8.6 | 0.5
CCCCn1c(=O)[nH]c(=O)c2c1nc(-c1ccccn1)n2CC | -8.6 | -0.3 | . | -41.2 | 0.683 | -3.0 | -2.5
CCCC1=C(C(=O)OCC)C(c2ccccc2OC)NC(=O)N1 (stereo not drawn) | 13.2 | -2.1 | 0.0% | -4.7 | 0.803 | 2.8 | 0.4
CCOC(=O)NC(=O)CN1C(=O)NC2(CCc3ccccc32)C1=O (stereo not drawn) | 3.7 | 0.3 | . | 1.9 | 0.651 | -0.8 | -0.3
CCOC(=O)C1(Cc2cccc(OC)c2)CCCN(C(=O)CCN2CCCO2)C1 (stereo not drawn) | -15.4 | -3.3 | . | 0.1 | 0.721 | 3.7 | -1.5

Grouped by structure: the compounds so far containing an aryl thioether with sulfur outside any ring (2)
SMILES | B2AR ag | Bfl-1 A1 inh | Vif TR-FRET | UCH37 inh | E coli growth | LANA-H2B inh | HNF4A DNA FP
COc1cc(=O)[nH]c(SC(C)C(=O)Nc2cc(C)on2)n1 (stereo not drawn) | 7.4 | -0.6 | . | 1.6 | 0.698 | 1.0 | -1.9
N#CCSc1nc2cc(C(=O)N3CCC(C(N)=O)CC3)ccc2c2nc3ccccc3n12 | -5.3 | 0.0 | -7.6% | -59.2 | 0.669 | -3.0 | -0.8

Continuation:
SMILES | B2AR ag | Bfl-1 A1 inh | Vif TR-FRET | UCH37 inh | E coli growth | LANA-H2B inh | HNF4A DNA FP
Cc1cc(C)cc(N(CCC#N)C(=O)CSc2ncnc3sccc23)c1 | 4.0 | 1.2 | -5.8% | 2.3 | 0.605 | 4.0 | 1.0
O=C(Nc1nccs1)c1cc2c(s1)-c1ccccc1OC2 | -6.0 | -0.7 | 4.3% | -73.5 | 0.663 | -0.8 | -3.9
Cc1nc(-c2ccccc2)sc1-c1n[nH]c(=S)n1C | 11.1 | -0.4 | 5.4% | -14.5 | 0.608 | 1.7 | 2.2
O=C(CCCCCN1C(=O)c2cccc3cccc(c23)C1=O)NCc1ccco1 | -4.2 | -0.3 | . | -31.6 | 0.675 | -1.7 | -6.8
CCCCNS(=O)(=O)c1ccc(OC)cc1 | -5.0 | -1.0 | 1.0% | -0.7 | 0.676 | -5.4 | -0.5
CCn1c(SCC(=O)NCC(=O)Nc2ccc(F)cc2)nnc1-c1ccncc1 | 4.4 | -1.3 | 67.5% | 0.6 | 0.719 | 0.4 | 6.1
CC(=O)N1CCc2c(sc(NC(=O)c3cccc(N4C(=O)CCC4=O)c3)c2C(N)=O)C1 | 16.2 | 0.3 | . | 12.1 | 0.674 | 5.1 | 33.6
CCC[C@@H](OS(N)(=O)=O)[C@@H](Cc1ccccc1)C(=O)OCC | 3.4 | 0.3 | . | 4.1 | . | 10.4 | -0.5
COc1cc(C2NC(=O)NC(c3ccccc3)=C2C(C)=O)c(Cl)cc1OCC(=O)O (stereo not drawn) | -2.3 | 0.3 | 0.7% | 6.0 | 0.652 | 1.6 | 6.0
O=C1CC(c2ccccc2)CN1C(=O)c1cccc([N+](=O)[O-])c1 (stereo not drawn) | -2.6 | 3.1 | -6.4% | 5.3 | 0.695 | 8.7 | 1.9
CCc1nc2ccccc2c(C(=O)OCCN2C(=O)c3ccccc3C2=O)c1C | 8.2 | 0.3 | 6.5% | 5.2 | 0.7 | 2.8 | -1.0
COc1ccc(OCC(=O)NNC(=O)C(=O)Nc2ccc(C)cc2)cc1 | 2.5 | -0.9 | 7.7% | 1.8 | 0.677 | -0.2 | 1.2
CCOc1ccccc1NC(=O)N1CCC(NC(=O)C2CCCCC2)CC1 | -6.1 | . | . | 3.4 | 0.683 | . | -3.0
Cc1cc(C)c2c(=O)n(CC(=O)NCCCN3CCOCC3)sc2n1 | -2.7 | 0.6 | 11.3% | 7.1 | 0.729 | -7.7 | -0.2
CC(C)CC(CO)N1CCN(C(=O)c2cccc(C(F)(F)F)c2)CCC1=O (stereo not drawn) | 6.5 | 0.1 | -3.3% | 1.6 | 0.67 | 1.5 | 2.6
O=C(N/N=C/c1cc([N+](=O)[O-])ccc1O)C1C2CCCCC21 (stereo not drawn) | . | 0.3 | 8.4% | . | . | 1.8 | .
CCOC(=O)C1(CCCc2ccccc2)CCN(C(=O)CCc2cnn(C)c2)CC1 | 0.8 | 0.3 | 3.3% | 1.6 | 0.704 | -3.0 | 3.5
CC(=O)N1CCC(C(=O)Nc2ccc(S(=O)(=O)N3CCCCC3)cc2)CC1 | 0.3 | -0.6 | . | 1.1 | 0.723 | -0.5 | 1.0
Cc1ccc(S(=O)(=O)NC(=O)c2ccc(Br)o2)c(C)c1 | -1.4 | -0.2 | ? | 3.8 | 0.612 | -0.9 | 4.9
Cc1cc(C(F)(F)F)nn1Cc1n[nH]c(=S)n1-c1cccc(Cl)c1 | 0.9 | -0.6 | 0.8% | 2.3 | 0.686 | 0.6 | -1.7
Cc1ccc(NCc2nnc(SCC(N)=O)n2CC2CCCO2)c(C)c1 (stereo not drawn) | 6.5 | 1.8 | -3.3% | -0.2 | 0.652 | -1.8 | -0.9
Cc1nnc(OC(C)C)c2nn(-c3ccccc3F)c(C)c12 | 0.0 | 0.2 | -1.8% | 2.2 | 0.723 | 5.5 | 1.4
Cc1ccc(NC(=S)N2CCN(c3nccc(C(F)(F)F)n3)CC2)c(C)c1 | -0.8 | -0.3 | -9.6% | -20.1 | 0.677 | -2.3 | 3.2
CCn1cc(C(=O)NCCc2ccccc2)c(=O)c2cc(S(=O)(=O)N(C)C)ccc21 | 8.9 | -1.1 | -10.6% | -0.1 | 0.696 | 0.3 | 4.4
CCOc1ccc(NC(=O)CN(C)C(=O)C2COc3ccccc3O2)cc1OCC (stereo not drawn) | -2.4 | 1.9 | 5.1% | 0.2 | 0.667 | 2.2 | -1.6
CCCCNC(=O)CC1N=C2c3ccccc3N=C(SCC(=O)Nc3ccc(OC)cc3)N2C1=O (stereo not drawn) | -9.3 | -1.2 | -0.7% | 2.2 | 0.678 | -1.0 | 1.9
CN(C)c1cc(Cl)c2nonc2c1N | 12.6 | 1.1 | 11.9µM* | 16.6 | 0.655 | 7.8 | -1.3
CCC(=O)NC(=S)Nc1ccccc1C(=O)NC1CCCCC1 | 15.2 | 0.2 | -4.5% | . | . | -2.6 | -1.2
O=S(=O)(NC1c2cccc3cccc(c23)C1N1CCNCC1)c1ccc(Cl)cc1 (stereo not drawn) | 33.4 | 0.0 | . | 6.2 | 0.682 | -5.4 | 2.4
O=C(CC(c1ccco1)C1CCCCC1=O)c1ccccc1 (stereo not drawn) | 5.1 | 0.9 | -1.0% | 0.6 | 0.664 | 4.2 | 1.4
CN(CC(=O)N1CCN(Cc2ccccc2)CC1)S(=O)(=O)c1ccc(Br)cc1 | -17.9 | -1.4 | . | 4.9 | 0.687 | 2.3 | 0.2

An unsorted share of the library. Share with any hit: about 2.1%.
